Assay outcomes deposited in PubChem by Fisher Drug Discovery Resource Center.
NPYLR7 agonist: mosquito NPYLR7 agonism. actives 0.15% (n = 270,000). HEK293T NPYLR7/Galpha15, GCaMP6s calcium fluorescence. AID 1259423. activation, % at 10 µM; in the data active = activation above about 40%;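 also: 0% = vehicle and 100% = reference agonist at the receptor; some compounds past the cut are filed as inactive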
NPYLR7 agonist max-min: also measured in NPYLR7 agonist; calls as there; activation, %; measured here: Max-Min RFU normalised activation; some inactives read as strong as hits;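 span of the calcium signal over five minutes; 0% = vehicle and 100% = native peptide agonist; compound fluorescence can raise it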
Active calls of the source: *; & = joins results of further samples. These rows are one share of the data, so the mix of outcomes need not match the whole.

SMILES	NPYLR7 agonist	NPYLR7 agonist max-min
NC(=O)c1ccc(NC(=O)Cn2c3c(c(=O)n(C4CCCCC4)c2=O)CCC3)cc1	-1	3
CCOc1cccc(CN2CCCC(C(=O)c3cc(Cl)ccc3OC)C2)c1O (centres undefined)	5	2
CC1Cc2ccc(-c3cc(CNC(=O)CCS(=O)(=O)c4ccccc4)no3)cc2O1 (centres undefined)	-1	-2
Cc1ccccc1CNC(=O)c1ccc2c(c1)NC(=O)C1CCCN21 (centres undefined)	-4	-3
CCCC(C)C(=O)N1CCCN(Cc2cc(=O)c(OCc3ccc(C(F)(F)F)cc3)co2)CC1 (centres undefined)	4	15
c1cnc(-c2nc(CNC3CCC4(CCNCC4)CC3)cs2)cn1	1	2
CCN(CC(=O)Nc1c(-c2ccccc2)c(C)nn1-c1ccccc1C)C(=O)c1cccc(C(F)(F)F)c1	-6	5
Cc1ccnc(SCC(=O)N2CCC(C(=O)NCC#N)(c3ccccc3)CC2)n1	6	4
Cc1ccc(C(=O)C(C#N)c2nnnn2-c2ccccc2)cc1 (centres undefined)	-2	-1
Cc1ccc(S(=O)(=O)CCc2nc(S(=O)(=O)c3ccc(C)cc3)c(N(C)C)o2)cc1	3	-2
CC1=C(C(=O)Nc2cccc(C(F)(F)F)c2)C(c2ccc(C#N)cc2)NC(=O)N1C1CC1 (centres undefined)	7	2
COc1ccc(-n2nc(CC(C)C)nc2Cn2cccn2)cc1	-1	-11
CN(C)c1ccc(NC(=O)C(C)(C)n2cc(-c3ccc4c(c3)OCO4)cn2)cc1	-13	-14
CCOc1ccccc1C(=O)Nc1ccc(N2CCN(C(=O)CC(C)(C)C)CC2)nc1	3	0
CN(C)CCN(Cc1ccc(F)cc1)C(=O)c1ccc(S(C)(=O)=O)cc1	0	12
COc1ccc(NC(=O)c2cnc(C)cn2)cc1OCC(=O)NC1CC1	7	4
CCOC(=O)[C@H]1C[C@]2(CCCCN(CCOC)C2=O)N(C(=O)c2ccno2)[C@H]1c1ccco1	1	1
Cc1cc(C(=O)NC2CC(=O)N(Cc3ccc(F)cc3)C2)no1 (centres undefined)	-3	-8
COc1ccc(-c2csc3c(=O)n(Cc4cccc(C)c4)cnc23)cc1	2	-3
NC(=O)c1ccc(CN2CCC3(CC2)Nc2ccccc2C(=O)N3c2ccccc2)cc1	0	11
COc1ccc(-c2cc(C(=O)N3CCN(C(=O)C(C)(C)CCl)CC3)c(C)n2-c2ccccc2F)cc1	0	6
O=C(c1cccs1)N1CCN(c2nc(-c3cccs3)nc3cc(Cl)ccc23)CC1	-4	-2
CSc1nnc(C)c(=O)n1COC(=O)c1ccc(C(F)(F)F)cc1	1	-3
CNC(=O)NC(=O)C(C)Sc1nc2ccccc2[nH]1 (centres undefined)	0	-2

Reprinted at random: five entries already listed.
SMILES	NPYLR7 agonist	NPYLR7 agonist max-min
O=C(c1cccs1)N1CCN(c2nc(-c3cccs3)nc3cc(Cl)ccc23)CC1	-4	-2
Cc1cc(C(=O)NC2CC(=O)N(Cc3ccc(F)cc3)C2)no1 (centres undefined)	-3	-8
COc1ccc(-c2cc(C(=O)N3CCN(C(=O)C(C)(C)CCl)CC3)c(C)n2-c2ccccc2F)cc1	0	6
NC(=O)c1ccc(CN2CCC3(CC2)Nc2ccccc2C(=O)N3c2ccccc2)cc1	0	11
CN(C)c1ccc(NC(=O)C(C)(C)n2cc(-c3ccc4c(c3)OCO4)cn2)cc1	-13	-14

Remaining list, next part:
SMILES	NPYLR7 agonist	NPYLR7 agonist max-min
Cn1nc2c(c1NC(=O)CCCS(=O)(=O)c1ccc(F)cc1)CCC2	27	23
O=c1c(-c2cccs2)[n+]([O-])c2ccccc2n1OCc1ccc(Oc2ccccc2)cc1	0	-9
Cc1cccc(OCC(=O)N2CCn3nc(C(=O)N4CCN(C)CC4)cc3C2)c1	-4	-9
CN(Cc1ccc(S(C)(=O)=O)cc1)C1Cc2ccccc2C1	9	8
CC(C)CC1C(=O)N2CCC[C@H]2C2(O)O[C@](NC(=O)C3C=C4c5cccc6[nH]c(Br)c(c56)C[C@H]4N(C)C3)(C(C)C)C(=O)N12 (some centres undefined)	-3	-16
CCCC(=O)Nc1c(C)nc2scc(C)n2c1=O	22	13
COc1cc2c(cc1NC(C)=O)NC(=O)CC2c1ccnn1-c1ccccc1 (centres undefined)	14	3
CCc1cccc2c(C(CC(=O)NCCCN3CCCCC3C)c3cccc(F)c3)c[nH]c12 (centres undefined)	5	7
CCc1nc(NC(=O)CCOCC(C)C)n[nH]1	2	1
COc1ccc(S(=O)(=O)Oc2cc(CN(CCN(C)C)C(=O)c3cccc(F)c3)ccc2OC)cc1	6	12
Cc1ccc(C)c(Nc2nc(Nc3cccc(F)c3)nc3nccnc23)c1	0	10
O=C(C1CCCCC1)N1CCC(NCc2cnc(N3CCCC3)nc2)CC1	1	2

Record cards (already shown).
Record of CCc1cccc2c(C(CC(=O)NCCCN3CCCCC3C)c3cccc(F)c3)c[nH]c12 (centres undefined) → NPYLR7 agonist = 5; NPYLR7 agonist max-min = 7
Record of COc1cc2c(cc1NC(C)=O)NC(=O)CC2c1ccnn1-c1ccccc1 (centres undefined) → NPYLR7 agonist = 14; NPYLR7 agonist max-min = 3
Record of CCc1nc(NC(=O)CCOCC(C)C)n[nH]1 → NPYLR7 agonist = 2; NPYLR7 agonist max-min = 1

Reformatted: results already given.
structure,NPYLR7 agonist,NPYLR7 agonist max-min
O=c1c(-c2cccs2)[n+]([O-])c2ccccc2n1OCc1ccc(Oc2ccccc2)cc1,0,-9
Cc1cccc(OCC(=O)N2CCn3nc(C(=O)N4CCN(C)CC4)cc3C2)c1,-4,-9
CN(Cc1ccc(S(C)(=O)=O)cc1)C1Cc2ccccc2C1,9,8
CC(C)CC1C(=O)N2CCC[C@H]2C2(O)O[C@](NC(=O)C3C=C4c5cccc6[nH]c(Br)c(c56)C[C@H]4N(C)C3)(C(C)C)C(=O)N12 (some centres undefined),-3,-16
CCCC(=O)Nc1c(C)nc2scc(C)n2c1=O,22,13
COc1cc2c(cc1NC(C)=O)NC(=O)CC2c1ccnn1-c1ccccc1 (centres undefined),14,3

The list continues.
SMILES	NPYLR7 agonist	NPYLR7 agonist max-min
CCn1c2ccc(Br)cc2c2nc3ccccc3nc21	1	0
Cc1ccc(Cn2cc(C(=O)NNC(=O)Nc3cccc(C)c3)ccc2=O)cc1	2	-1
Cc1cc(N2CCCC2)n2nc(C)c(-c3ccccc3)c2n1	1	-2
CC1Cc2cc(-c3cc(CNC(=O)COc4ccc(F)cc4)no3)ccc2O1 (centres undefined)	5	4
CN1CC(NC(=O)c2ccc(CNC(=O)C3CCCC3)cc2)CCC1=O (centres undefined)	-3	-5
Cc1ccc(CNCc2cccnc2N2CCCC(O)C2)o1 (centres undefined)	5	1
CCn1c(C(C)n2cccn2)n[nH]c1=O (centres undefined)	0	24
CC(c1ccc(F)cc1)N(C)C(=O)CSc1nnnn1C (centres undefined)	-3	-6
COc1ccccc1N=Nc1c(C)[nH]n(-c2nc(-c3cccc([N+](=O)[O-])c3)cs2)c1=O	-9	-15
CCCNC(=O)N1CCc2cc(OC)c(OC)cc2C1CNC(=O)c1cccc(OC)c1 (centres undefined)	6	14
Cn1nc(-c2cccc(NC(=O)Cc3ccc(F)cc3)c2)ccc1=O	1	-1
Cc1cc([N+](=O)[O-])cc(S(=O)(=O)NCc2ccc(N3CCOCC3)nc2)c1C	-4	6
C#CCn1c(=O)c2c(ncn2C)n(C)c1=O	-2	-23
CC(C)(CNS(=O)(=O)c1cccs1)N1CCOCC1	2	2
COc1ccc(OC)c(C2SCCN2C(=O)Nc2c(C(C)C)cccc2C(C)C)c1 (centres undefined)	-3	3
Cc1nnc(SCCCNC(=O)CCC(F)(F)F)s1	3	-3
COc1ccccc1C(=O)N1CCC(C(NC(=O)c2cccs2)C(=O)N2CCOCC2)CC1 (centres undefined)	14	19
O=C(c1ccccc1Cl)N1CCC2(CC1)SCCN2C(=O)C1CCCC1	9	20
COc1ccc(-c2cc3ccc4c(c3oc2=O)CN(Cc2cccnc2)CO4)c(OC)c1	-3	4
CC(Oc1ccccc1)C(=O)N1CCN(c2nccc(-c3ccc4c(c3)OCO4)n2)CC1 (centres undefined)	4	0
CNc1cc(C(=O)NCCC2=CSC3=NCCCN23)ccn1	-9	-10
COCCN=c1scc(-c2ccc(Cl)c(Cl)c2)n1N=Cc1ccc2c(c1)OCO2	4	2
N[C@@H](COP(=O)(O)O)C(=O)O	-1	-12
COc1cccc(-n2c(=O)c3ccc(Cl)cc3n(CC(=O)NCc3ccc(F)cc3)c2=O)c1	-2	4
CC(NC(=O)c1nn(-c2cccc(C(F)(F)F)c2)c(=O)n(Cc2ccc(F)cc2)c1=O)c1ccccc1 (centres undefined)	0	1
CC(C)C1OCCC1CNC(=O)c1ccc[nH]1 (centres undefined)	2	2
CCc1cc(CNC(=O)c2cc(COc3ccc(C)nc3)on2)on1	0	-2
CCOC(=O)CN(CCN1CCOCC1)Cc1cccn1Cc1cccc(C)c1	14	27
Cc1ccc(NCCNC(=O)c2cc(F)ccc2F)nn1	10	7
Cc1ccccc1S(=O)(=O)N1CCC(CCc2ccc(-c3ccccc3)cc2)CC1	0	-6
Cc1ccc(-n2nc3c(c2NC(=O)/C=C\c2ccccc2)CS(=O)(=O)C3)c(C)c1	0	-2
CC(C)C(=O)N=C1NC(=O)CS1	2	11
Cc1ccc(C)c(SCc2csc(-c3c(F)cccc3F)n2)c1	8	22
CC(C)c1nccc(-c2c(-c3ccccc3)ncn2C[C@H]2CCCN2)n1	10	8
Clc1cc2c(c(CSc3nnc(-c4ccccc4)o3)c1)OCOC2	0	15
Cc1cccc(C(=O)N2C(C(=O)N3CCN(C)CC3)COC23CCN(C(=O)Cc2ccccc2)CC3)c1 (centres undefined)	0	2
O=C(NNC(=O)c1cc2c(s1)-c1ccccc1OC2)c1ccccc1	2	2
Cn1nc(C(=O)O)c2c1CCN(C(=O)CC(c1ccccc1)c1ccco1)C2 (centres undefined)	-2	-4
OCCNc1nc2nonc2nc1NCCO	6	7
CC1SC(=N)N(c2ncc(Cc3cccc(Cl)c3)s2)C1=O (centres undefined)	-7	-9
COc1cccc2cc(C(=O)N3CCC(C(N)=O)CC3)oc12	13	7
CCN(CC)S(=O)(=O)c1ccc(NN=C(C)c2ccncc2)nc1	1	-2
CO[C@H]1C[C@@H]2C[C@H](c3ccccn3)OC[C@]2(O)[C@@H]1N1CCN(c2ccccc2F)CC1	2	14
c1ccc(Oc2ccc(-c3cc(NCCc4cccnc4)n4nccc4n3)cc2)cc1	-2	-2
CC(C)CNCC1CN(CC(C)C)CCO1 (centres undefined)	-2	-7
Cc1cccc(Oc2ccc(Cl)cc2NC(=O)CN2CCCC2=O)c1	8	6
Cc1ccc(NC(=O)N2CCC3(CC2)NC(C)C(=O)N3Cc2ccco2)cc1 (centres undefined)	4	4
N=C1CCCN1c1c(Cl)cccc1Cl	6	3
Cc1ccc(C)c(C=NNS(=O)(=O)c2cc(C)ccc2C)c1	-1	-8
CCN1CCCC1CNC(C)C(=O)Nc1ccc(Oc2ccccc2)cc1 (centres undefined)	0	0
CCOc1cc2c(cc1NC(=O)c1cc(C)cc(C)c1)OC(C)C2 (centres undefined)	1	16
CCC(C(=O)N1CCN(C(c2ccccc2)c2ccc(Br)cc2)CC1)c1ccccc1 (centres undefined)	3	-1
O=C(Cn1ccn2nc(-c3ccc(Cl)cc3)cc2c1=O)Nc1cc(C(F)(F)F)ccc1Cl	-2	-2
COc1cc(C2Nc3ccccc3C(=O)N2c2ccccc2)ccc1O (centres undefined)	-2	-10
N#Cc1cccc(NC(=O)c2cnn(-c3cccnc3)c2)c1	8	9
Cc1ccsc1-c1nc(COc2cccc(N3CCOCC3)c2)c(C)o1	11	9
CCS(=O)(=O)c1nc(S(=O)(=O)c2ccc(Cl)cc2)c(NCC(C)C)s1	4	4
CCN(Cc1cc(Br)ccc1O)C(=O)CCc1c(C)[nH]c(=O)c(C#N)c1C	5	0
CCOC(=O)N1CCN(C(=O)Cc2csc(NC(=O)CN(C(=O)c3ccc(F)cc3)C(C)C)n2)CC1	-2	6
Cc1ccc(S(=O)(=O)N(Cc2cccc(C)c2)C(=O)N2CCN(C)CC2)cc1	1	-1
The listing continues.
SMILES	NPYLR7 agonist	NPYLR7 agonist max-min
CCOC(=O)c1c2c(n(NC(N)=O)c1C)/C(=C/c1ccccc1)CC2	1	0
C#CCOCC(O)CN(CCC)Cc1c(C)nn(-c2ccc(Cl)cc2)c1Oc1ccccc1OC (centres undefined)	-10	-4
COc1cc(C=C2C(=O)N(C)C(=O)N(C)C2=O)cc(I)c1O	5	6
COCCOCC(=O)N1CCN(Cc2cc(=O)c(OCc3ccc(C(F)(F)F)cc3)co2)CC1	3	8
CC1CC(=NNc2ccc(S(N)(=O)=O)cc2[N+](=O)[O-])CC(C)(C)C1 (centres undefined)	-7	-8
CSc1ncccc1C(=O)N(Cc1ccccc1)[C@H]1CCN(C)C[C@@H](O)C1	7	14
CCCc1cc(=O)[nH]c(-n2nc(C)cc2NC(=O)c2ccco2)n1	6	0
CCC1CCCCN1Cc1nc2c(c(=O)n(C)c(=O)n2C)n1CCCc1ccccc1 (centres undefined)	10	6
Cc1cccn2c(=O)c3cc(C(=O)NC4CCSC4=O)sc3nc12 (centres undefined)	10	3
Cc1cc2cc3c(C)cc(=O)oc3c(C)c2o1	-2&-3	-8&-4
CCCn1c(O)c(N=NC(=O)c2ccccn2)c2ccccc21	-2	-7
COc1ccc(-c2nc3cc(C)ccc3o2)cc1NC(=O)c1cccc(Br)c1	-6	-9
Cc1cc(N(C)C)nc(NCCNC(=O)COc2ccc(Cl)cc2)n1	4	2
CCc1ccc(C(=O)c2c(N)c(C(=O)Nc3cccc(C)c3)c3ccccn23)cc1	-5	-10
Oc1ccc(Cn2cc[nH]c2=S)cc1	-1	-29
O=C(O)C1C2C=CC(C2)C1C(=O)N1CCOCC1 (centres undefined)	5	6
CCCCOCC(O)CN(Cc1ccco1)Cc1c(C)nn(-c2ccccc2)c1Oc1ccc(OC)cc1 (centres undefined)	9	8
CS(=O)(=O)CCC1NC(=O)N(Cc2ccc(Cl)cc2Cl)C1=O (centres undefined)	-3	1
COCCNC(=O)CSc1nnc(-c2ccccc2)c2sc(C)nc12	1	-1
CCN1CCc2c(sc(NC(=O)c3cccs3)c2-c2nc3ccccc3s2)C1	16	14
